High-throughput results: PubChem, National Center for Advancing Translational Sciences (NCATS)
CtBP-E1A inh: inhibitors of CtBP/E1A interaction; AlphaScreen GST-E1A/His-CtBP binding, 1536-well; hits give low values; control for the full effect not named in the record; activity change, % (test concentration not listed); 0.49% of 340,000 active; in the data active means activity change below about -65%; inconclusive means about -30% to -65%; inactive means above about -30%; further: on the % scale 0 is the no-effect control and ±100 the full control effect; compound concentration not given in the record
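Homogeneous bead-based format: GST-tagged E1A captured on glutathione donor beads, His-tagged CtBP on nickel acceptor beads; compounds precede bead addition by 2 h at 37 °C.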
Six1-Eya2 blk: blocks human Six1 binding to Eya2. Q15475+O00167. AlphaScreen GST-Six1/His-Eya2 binding, biochemical; hits give low values; control for the full effect not named in the record. activity change, % (concentration not given with the values). 0.56% of 360,000 active. AID 651725; in the data active = activity change below about -65%; inconclusive = about -30% to -65%; inactive = above about -30%; further: on the % scale 0 is the no-effect control and ±100 the full control effect
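Homogeneous AlphaScreen proximity assay pairing GST-Six1 with His-tagged Eya2 (added as 5X mix: 250 nM and 500 nM) in 50 mM Tris pH 8.0, 300 mM NaCl, 1 mM TCEP. Glutathione donor and nickel acceptor beads; 1 h, 37 °C, dark.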
TRPML1 agonist: activates the human TRPML1 channel; TRPML1-expressing cells, Ca2+ dye fluorescence, FDSS; host cell line not named in the record; reference of the full effect not given here; activation, % (no concentration beside the values); 0.12% of 410,000 active; in the data active = activation above about 50%; inconclusive = about 30% to 50%; inactive = below about 30%; further: 0% is about no effect; the text of the record puts the active cut at 80%
Target sequence (Q9GZU1 whole entry, looked up): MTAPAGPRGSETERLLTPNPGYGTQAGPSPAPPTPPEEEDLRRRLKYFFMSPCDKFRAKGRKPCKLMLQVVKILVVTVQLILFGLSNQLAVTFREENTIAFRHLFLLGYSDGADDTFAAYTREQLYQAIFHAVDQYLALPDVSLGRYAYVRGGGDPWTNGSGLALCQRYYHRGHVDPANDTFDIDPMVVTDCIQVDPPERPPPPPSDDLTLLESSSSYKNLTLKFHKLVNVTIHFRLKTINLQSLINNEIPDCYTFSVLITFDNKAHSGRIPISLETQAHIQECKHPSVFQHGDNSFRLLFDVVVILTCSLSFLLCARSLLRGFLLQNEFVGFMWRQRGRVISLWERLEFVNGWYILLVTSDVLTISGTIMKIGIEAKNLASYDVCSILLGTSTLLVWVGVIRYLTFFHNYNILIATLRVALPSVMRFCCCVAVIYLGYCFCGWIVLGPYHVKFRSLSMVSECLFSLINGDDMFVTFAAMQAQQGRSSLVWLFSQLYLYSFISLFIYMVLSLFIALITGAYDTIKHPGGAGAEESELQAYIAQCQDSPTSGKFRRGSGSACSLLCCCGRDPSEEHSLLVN
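TRPML1-DL cells, Tet-induced overnight (~16 h, 37 degrees C), loaded 45-90 min at room temperature with Ca8 no-wash calcium dye plus quencher. FDSS fluorescence: 10 s baseline, compound pin-transfer, 110 s agonist read, then EC80 54-4 (4uM final) and 110 s antagonist read.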
TRPML1 inh: blocks the human TRPML1 channel; TRPML1-inducible cells, Ca2+ dye fluorescence, FDSS; hits give low values; inhibition of EC80 agonist-evoked calcium signal; activity change, negative = inhibition, % (test concentration not listed); 0.02% of 390,000 active; AID 624415; in the data active means activity change below about -50%; inconclusive means about -30% to -50%; inactive means above about -30%;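 further: stimulus is agonist 54-4 at its EC80 concentration; on the % scale 0 is the no-effect control and ±100 the full control effect; compound concentration not given in the record; the text of the record puts the active cut at -80%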
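Tet-induced TRPML1-DL cells loaded with Ca8 no-wash calcium dye were read kinetically on FDSS. Compound addition was followed by EC80 agonist 54-4 (4 uM final); inhibition was read over 110 s.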
D2 agonist: human D2 receptor agonism in beta-arrestin assay; P14416; DiscoveRx PathHunter D2 beta-arrestin, luminescence, 90 min; 100% = 57 uM dopamine signal; activation, % (test concentration not listed); 0.084% of 360,000 active; AID 624465; in the data active = activation above about 40%; inconclusive = about 15% to 40%; inactive = below about 15%; further: compound concentration not given in the record; the text of the record calls up to 30% inactive
Target sequence (P14416 whole entry, looked up): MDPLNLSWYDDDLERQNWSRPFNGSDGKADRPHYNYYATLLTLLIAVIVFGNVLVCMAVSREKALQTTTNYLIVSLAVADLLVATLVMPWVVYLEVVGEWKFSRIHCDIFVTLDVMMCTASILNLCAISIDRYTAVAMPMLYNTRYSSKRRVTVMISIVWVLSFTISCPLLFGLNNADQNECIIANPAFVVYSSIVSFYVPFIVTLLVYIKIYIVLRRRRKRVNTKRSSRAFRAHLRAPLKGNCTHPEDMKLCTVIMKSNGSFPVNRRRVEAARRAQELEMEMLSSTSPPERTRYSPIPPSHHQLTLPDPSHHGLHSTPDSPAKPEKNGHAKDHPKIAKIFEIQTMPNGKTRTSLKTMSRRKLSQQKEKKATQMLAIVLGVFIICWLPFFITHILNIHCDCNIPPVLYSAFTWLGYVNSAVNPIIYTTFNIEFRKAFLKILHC
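DiscoveRx PathHunter D2 beta-arrestin cells (2,100/well) attached overnight, then compound-stimulated 90 min at 37 C in HBSS/10 mM HEPES/0.1% Tween-20 buffer; beta-galactosidase complementation read by luminescence after 1 h at ambient temperature. Dopamine 57 uM final (EC100) as control.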
PINK1 modulator: changes PINK1 expression; PINK1 immunofluorescence, high-content cytometry, 24 h; Potency, µM (titrated, usually from 76.6 µM), for inactives: at the highest dose activation (PINK1 increase), hits mostly activators; 0.2% of 410,000 active; active = well fitted activation curve with a large enough effect; inconclusive = small, poorly fitted or top-dose-only effect; inactive = flat fitted curve, though single readings scatter; cell line not stated here;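 further: potency means the concentration at half of the fitted maximal effect; % of control where 0% means no effect; nearly all actives have a fitted effect of over 65% in size; a mitochondrial uncoupler was the plate control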
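Stable cell line, 250 cells/well, 12 h attachment; compounds pinned at 5 concentrations, 24 h; CCCP control. Fixed with nuclear dye, primary antibodies 12 h at 10 degrees C, secondary plus cell stain; laser-scanning cytometer read.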
An asterisk follows results filed as active; ? = inconclusive; / = not tested or not shown; & = joins results of further samples; [ ] = dose if it differs, or a comment.

Fields: CtBP-E1A inh, Six1-Eya2 blk, TRPML1 agonist, TRPML1 inh, D2 agonist, PINK1 modulator
- Cc1ccc(N(C(=O)c2csnn2)C(C(=O)NC2CCCCC2)c2cccnc2)cc1C (centres undefined)
→ -3, 8, -0.3, -1, 2.9, 1.7%
- CC(=O)CSc1nnc(-c2ccco2)n1-c1ccccc1
→ /, -6, -0.4, 2, 3.1, 1.1%
- C#CCOC(=O)CCCC(=O)Nc1ccccc1OC
→ 7, 2, -0.2, 0, 0.3, -0.5%
- CCN(C(=O)COC(=O)c1ccccc1NCCO)C1CCS(=O)(=O)C1 (centres undefined)
→ 2, 5, -0.7, -2, 0.1, 1.3%
- O=c1[nH]c(=O)n(CCOc2ccc(Cl)cc2)cc1Br
→ -1, -9, -0.8, -2, -9.9, -0.8%
- CCCn1c(N)c(N(CCOC)C(=O)c2ccc([N+](=O)[O-])c(C)c2)c(=O)[nH]c1=O
→ -1, -11, 0.2, 11, 0.0, 0.2%
- Cc1cc(=O)[nH]c(SCC(=O)c2ccc3c(c2)NC(=O)CO3)n1
→ 6, -4, -0.4, 5, -0.9, -1.3%
- COc1ccc(NC(C)=O)cc1S(=O)(=O)Nc1ccc2c(c1)OCCO2
→ 1, -1, -0.3, 3, 0.3, -0.4%
- COc1ccc(N=C2SCC(=O)N2CCc2ccc(OC)c(OC)c2)cc1
→ 7, 5, 3.7, 12, -3.7, -0.4%
- Cc1ccc(Nc2ccncc2S(N)(=O)=O)cc1
→ /, 1, 0.7, 36, 1.1, -0.2%
- CSc1nc(NCCCO)c2c3c(sc2n1)CN(C)CC3
→ /, -2, 2.8, 7, -2.1, 1.5%
- COc1ccc(NC(=O)C2CCN(S(=O)(=O)c3ccc(Br)s3)CC2)cc1OC
→ -5, -6, 0.1, -8, -4.7, 1.4%
- Cc1oc(C(C)(C)C)cc1C(=O)Nc1ccc(C(=O)O)cc1
→ -1, -1, -0.9, -5, 0.0, -0.8%
- Cc1cc(C)n2cc(CSc3ccccn3)nc2n1
→ 6, -2, 0.0, -11, 5.2, 7.5%
- Cc1nn(C)c(C(=O)Nc2ccc(S(=O)(=O)NC34CC5CC(CC(C5)C3)C4)cc2)c1Br
→ 6, -1, -0.7, 8, 0.8, ?
- CCc1ccc(Oc2nc3c(C)cccn3c(=O)c2/C=C(\C#N)c2nc3ccccc3[nH]2)cc1
→ /, /, -0.6, 3, /, ?
- O=C1NNC(c2ccccc2)=N/C1=C\c1ccccc1
→ /, 3, -1.0, -6, -10, 0.9%
- Cc1ccc(Nc2nc(C(=O)N3CCC(C(=O)N4CCN(C)CC4)CC3)cs2)cc1
→ -8, 1, 0.4, 2, 2.3, 1.4%
- COc1cc(CN2CCC(C(=O)NC(c3ccc(-c4ccccc4)cc3)c3cnccn3)CC2)cc(OC)c1 (centres undefined)
→ -12, -25, 1.8, /, -3.0, -0.1%
- Cc1cnc(C(=O)OCC(=O)C23CC4CC(CC(C4)C2)C3)cn1
→ -24, 0, 0.0, -6, -2.6, -0.3%
- CCCCCCC1CC(CCc2nc(=S)[nH][nH]2)C(=O)O1 (centres undefined)
→ 3, -5, 0.3, 4, -0.2, -2.1%
- COc1ccc(S(=O)(=O)Nc2ccc3c(c2)C(=O)N([C@H](C)CO)C[C@H](C)[C@@H](CN(C)C(=O)NC(C)C)O3)cc1
→ 3, 4, -0.8, 22, 3.0, -0.4%
- COc1ccc(OC)c(C(=O)CN2C(=O)NC(C)(c3ccccc3)C2=O)c1 (centres undefined)
→ 1, 1, 2.1, -2, -1.0, 3.1%
- Cn1cnc2c(=O)[nH]cc([N+](=O)[O-])c21
→ /, -7, -0.3, 1, -6.0, 0.2%
- CC(C)c1ccc(NC(=O)C(c2ccccc2)N(C)C(=O)CCc2c[nH]c3ccccc23)cc1 (centres undefined)
→ -2, -8, -1.2, 13, 0.4, 4.7%
- NC(=O)COc1ccc(NS(=O)(=O)Cc2ccccc2)cc1
→ 0, -7, -1.0, 13, -1.7, -0.1%
- Cc1csc2nc(NC(=O)c3ccccc3)sc(=O)c12
→ 4, -18, -0.2, 58, -0.6, 5.8%
- Cn1cnnc1SCc1ccccc1Br
→ 9, 4, -0.1, -8, -3.9, 1.0%
- COc1ccc(CC(NC(C)=O)C(=O)NC2CCN(C(=O)NCc3ccccc3)CC2)cc1OC (centres undefined)
→ 5, 7, 0.1, 12, 3.9, -1.6%[38.3 µM]
- Cc1ccc(S(=O)(=O)N2CCN(C(=O)COC(=O)CCOc3ccccc3)CC2)c(C)c1
→ -19, 0, 6.3, -1, -3.8, 0.7%

(continued)
Fields: CtBP-E1A inh, Six1-Eya2 blk, TRPML1 agonist, TRPML1 inh, D2 agonist, PINK1 modulator
- O=S(=O)(NC1CC1)c1cccc(S(=O)(=O)N2CCCC2)c1
→ 0, 8, 0.6, -5, -1.0, -3.3%
- Cc1ccc(Sc2ncccc2C(=O)NCC(c2ccc(F)cc2)N2CCOCC2)cc1C (centres undefined)
→ -3, 0, 0.0, -4, -5.7, -4.1%
- O=C(NCc1ccccc1F)C(=O)NCC1OCCCN1S(=O)(=O)c1cccs1 (centres undefined)
→ 0, 0, -0.8, -8, -2.2, 0.8%
- CCCc1nc2oc3c(NCCOCCO)ncnc3c2c2c1COC(C)(C)C2
→ 5, -2, -0.9, 22, -3.3, 0.6%
- C#CCOCCOCCOCCNc1nc(N2CCN(C(=O)[C@H](CCCN=C(N)N)n3cc(C(N)[C@@H](C)CC)nn3)CC2)nc(N2CCN(C(=O)[C@H](CCCCN)n3cc([C@@H](N)[C@H](C)CC)nn3)CC2)n1 (some centres undefined)
→ -13, 0, -0.3, -11, -2.0, -0.1%
- Cc1ccccc1S(=O)(=O)Cc1ccc(C(=O)NC(C)c2ccc3c(c2)OCCO3)o1 (centres undefined)
→ 3, -2, 2.0, 13, 1.6, -3.2%
- Cc1ccc(S(=O)(=O)CCC(=O)Nc2nc(-c3ccccn3)cs2)cc1
→ -73*, ?, -0.6, -10, 0.1, -0.5%
- Cc1ccccc1-c1nc2ccccc2c(=O)n1/N=C/c1ccc([N+](=O)[O-])cc1
→ -2, -1, 0.1, -1, 4.0, 4.8%
- CCc1nc(N[C@@H](CC(C)C)C(=O)O)c2oc3ccccc3c2n1
→ 2, -3, -0.2, 37, -2.6, 3.1%
- Cc1cc(NC(=O)CSCC(=O)N(C)Cc2cccc(Cl)c2)no1
→ -4, 2, 0.4, -10, -4.1, 1.7%
- CCC/C(O)=C1\C(=O)CC(C)(C)CC1=Nc1ccccc1OC
→ 3, -9, 0.6, 0, -1.8, -2.0%
- O=C(COc1ccc(/C=C\[N+](=O)[O-])cc1)N1CCOCC1
→ /, 4, 0.2, 13, -1.7, ?
- COc1ccc(/C(N)=N/OC(=O)CCc2ccccc2)cc1OC
→ 6, 14, 3.5, -20, -1.0, 1.6%
- CC(=O)NC1=NC(=O)/C(=C/c2cn(C(C)=O)nc2-c2ccccc2)S1
→ /, -20, 0.0, 2, -4.2, -0.1%
- O=C(NCCC(F)(F)F)C1Cc2c(-c3ccc(Cl)cc3)ccnc2O1 (centres undefined)
→ 2, 2, -0.9, /, -2.1, 3.8%
- O=C(NCC1CCCO1)c1ccccc1NS(=O)(=O)c1cc([N+](=O)[O-])ccc1Cl (centres undefined)
→ 10, 0, 1.0, 9, -0.1, 2.3%
- C=CCCC(=O)N1C[C@H]2CCN(C)[C@H]2C[C@H]1c1ccccc1
→ 1, 8, 0.1, /, -1.8, -0.1%
- COc1ccc(OCCNC(=O)c2ccc3nc(C)c(N(C)C(=O)CCc4ccccc4)n3c2)cc1
→ 2, 1, -0.8, /, 4.7, 0.6%
- CC(C(=O)NCc1ccc2c(c1)OCO2)N1c2cccc3cccc(c23)S1(=O)=O (centres undefined)
→ 5, 2, 4.0, 7, 2.8, -0.5%
- C=CCN1C(=O)c2oc3ccccc3c(=O)c2C1c1ccc(O)c(OC)c1 (centres undefined)
→ -3, -13, -0.8, -2, -4.8, 2.5%
- O=C1NC(c2ccccc2)C(C(=O)c2cccs2)C(O)(C(F)(F)F)N1 (centres undefined)
→ -5, 0, -0.6, -1, -3.4, 0.2%
- Cn1c(-c2ccc(C#N)cc2)c(C#Cc2ccccc2)c2ccccc21
→ 125, 126, 1.3, 51, -0.7, 1.7%
- Cc1cc2ncn(-c3nnnn3-c3ccccc3)c2cc1C
→ 11, -1, 0.4, -11, -2.6, -1.0%
- O=C(O)Cn1cc(C(=O)c2cccs2)c2ccccc21
→ 5, 0, 1.1, -3, 0.4, 15%[38.3 µM]
- Cc1ccc(C)c(N2CCN(C(=O)CNS(=O)(=O)c3cccs3)CC2)c1
→ 1, -1, 1.1, -4, 1.4, -1.5%[38.3 µM]
- C[C@H]1NC(=O)[C@@]2(C)[C@@H](c3ccccc3)[C@H]3COc4ccccc4[C@H]3N2C1=O
→ -22, 15, 0.1, -16, 0.3, -1.7%
- COCCCNC(=O)c1c(NC(=O)c2nc(S(C)(=O)=O)ncc2Cl)sc2c1CCCC2
→ /, /, 1.7, -9, /, 1.8%
- COc1ccc2nc3ccccc3nc2c1
→ -8, -19, /, /, 1.7, 1.5%
- O=C(CN(C(=O)c1ccccc1Cl)N1C(=O)C2C3C=CC(C3)C2C1=O)c1cccs1 (centres undefined)
→ 6, 11, -0.9, 0, -0.8, 0.9%
- COc1ccc(-c2coc3cc(OC(=O)N4CCOCC4)ccc3c2=O)cc1
→ 4, -1, 0.0, -14, 1.0, 0.2%

Other records:
Fields: CtBP-E1A inh, Six1-Eya2 blk, TRPML1 agonist, TRPML1 inh, D2 agonist, PINK1 modulator
- COc1ccc(N2CCN(C(=O)c3nn(C)c4c3CS(=O)(=O)c3ccccc3-4)CC2)cc1
→ 3, 2, -1.2&-0.4, 0&-18, 3.1, -0.1%&0.3%
- Cc1ccc(OCCCc2c(C)n[nH]c2C)cc1
→ 5, 1, -0.4, -13, 2.4, 4.3%
- CN(C)S(=O)(=O)c1ccc(N2CCCC2)c(C(=O)Nc2ccc(C(N)=O)cc2)c1
→ 5, 1, 0.4, 10, -4.3, -1.3%
- CCOc1cccc(NC(=O)C2CC(=O)N(C)C(=Nc3cccc(F)c3)S2)c1 (centres undefined)
→ 10, 0, 0.0, 8, -2.2, -5.5%[38.3 µM]

For reference, 2 of the compounds above.
Fields: CtBP-E1A inh, Six1-Eya2 blk, TRPML1 agonist, TRPML1 inh, D2 agonist, PINK1 modulator
- COc1ccc(-c2coc3cc(OC(=O)N4CCOCC4)ccc3c2=O)cc1
→ 4, -1, 0.0, -14, 1.0, 0.2%
- COc1ccc(N2CCN(C(=O)c3nn(C)c4c3CS(=O)(=O)c3ccccc3-4)CC2)cc1
→ 3, 2, -1.2&-0.4, 0&-18, 3.1, -0.1%&0.3%
